Screening results deposited in PubChem by National Center for Advancing Translational Sciences (NCATS).
Methyltransferases = Primary Screen for Target Class Profiling of Small Molecule Inhibitors of Methyltransferases. AID 1745853, 2022. purified enzyme, MTase-Glo SAH luminescence; hits give low values. 25,000 tested, 3.9% active. calls only at 40 µM; active = -50% or lower on at least one of six enzymes; inconclusive = the cases between; inactive = as a rule above -30% on all six;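 further: enzymes were COMT GAMT GNMT HNMT NNMT and PNMT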
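Each enzyme was assayed with SAM and its substrate. SAH formation detected by MTase-Glo luminescence; single-point 40 uM screen[…].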
Calls only; i = inactive; ? = inconclusive; + = active, no number. On the % scale 0 is the no-effect control and ±100 the full control effect.

A first look:
SMILES | Methyltransferases
C=C1C[C@]23C[C@@]1(O)CC[C@H]2[C@@]12C=C[C@H](O)[C@@](C)(C(=O)O1)[C@H]2[C@@H]3C(=O)O | i
c1ccc(N2CCCC(c3nccn3Cc3ccncc3)C2)nc1 (stereo unspecified) | i
Cc1ccc(C(=O)Cn2nc3n(C(C)C)c(=O)c4ccc(C(=O)NC5CCCC5)cc4n3c2=O)cc1 | i

Main list, from the first entry:
SMILES | Methyltransferases
C=C1C[C@]23C[C@@]1(O)CC[C@H]2[C@@]12C=C[C@H](O)[C@@](C)(C(=O)O1)[C@H]2[C@@H]3C(=O)O | i
c1ccc(N2CCCC(c3nccn3Cc3ccncc3)C2)nc1 (stereo unspecified) | i
Cc1ccc(C(=O)Cn2nc3n(C(C)C)c(=O)c4ccc(C(=O)NC5CCCC5)cc4n3c2=O)cc1 | i
O=C1CCCN1CCCNc1nc2c(S(=O)(=O)c3ccc(Br)cc3)nnn2c2ccccc12 | i
CC(C)Cn1c(=O)c2ccc(C(=O)NC3CCCC3)cc2n2c(=O)n(Cc3ccc(F)cc3Cl)nc12 | i
O=C(NCCCCCNC(=O)c1cccnc1)c1cccnc1 | i
Cc1ccc(CNC(=O)CSc2nnc3n(Cc4ccccc4)c(=O)c4ccccc4n23)cc1 | i
COc1ccc(NC(=O)Cn2c(=O)oc3cc(S(=O)(=O)N4CC(C)CC(C)C4)ccc32)cc1 (stereo unspecified) | i
CC1(C)CCC=[N+]1[O-] | i
Cc1nn(-c2ccccc2)c2c1C(C)N(C1CCN(C(=O)NC3CCCC3)C1)C2=O (stereo unspecified) | i
Cc1nn(C)c(COc2ccc(N3CCN(S(=O)(=O)N(C)C)CC3)cc2)c1-c1cccc2c(CCCOc3cccc4ccccc34)c(C(=O)O)n(CCN3CCOCC3)c12 | i
COc1ccc(NC(=O)c2ncn3c2C(=O)N(C2CC2)C(C)(C(=O)NC2CCCC2)C3)c(OC)c1 (stereo unspecified) | i
Cc1noc(C)c1-c1cnc(Nc2ccncc2)c2c1CCO2 | +
Cc1ccc(C)c(C(=O)CSc2nnc3n(C)c(=O)c4ccc(C(=O)NC5CCCCC5)cc4n23)c1 | i
COc1cccc(CNC(=O)c2cc3n(n2)CC(C)(C(=O)NC2CCCCCC2)N(C)C3=O)c1OC (stereo unspecified) | i
O=C(O)Cc1cn([C@@H]2O[C@H](CO)[C@@H](O)[C@H](O)[C@H]2O[C@@H]2O[C@H](CO)[C@@H](O)[C@H](O)[C@H]2O)c2ccccc12 | i
Cc1cccc(N2C(=O)c3cc4sccc4n3CC2(C)C(=O)NC2CCCCC2C)c1C (stereo unspecified) | i
CCCn1cc(C(=O)N2CC(=O)N(c3cccc(C)c3)CC2C)c(C)n1 (stereo unspecified) | i
CCOC(=O)c1ccc(NC(=O)CN2CCCCC2)cc1 | i
O=C(CCC1CCCC1)N1CCCC1c1nc(CCOCC2CC2)no1 (stereo unspecified) | i
COc1ccc(NC(=O)Cn2nc3n(Cc4ccccc4)c(=O)c4ccccc4n3c2=O)cc1 | i
O=C(c1ccc(-c2cccc(O)c2)nc1)N1CCCN(c2ncccn2)CC1 | i
COc1cccc(N2CCN(C(=O)CN(C)S(=O)(=O)c3ccc4[nH]c5c(c4c3)CCCC5)CC2)c1 | i
CC(C)(N)c1ncc(-c2ccc(OC(F)(F)F)cc2)[nH]1 | i
Cc1ccc(CCN2CCCCC23Cc2ccccc2CN([S+](C)(=O)[O-])C3)cc1 (stereo unspecified) | i
CCCCOc1ccccc1-c1cc2n(n1)CC(C)(C(=O)NC1CCCCC1)N(CCOC)C2=O (stereo unspecified) | i
OC[C@@H]1O[C@H](CNCc2ccc(F)cc2)[C@H](N2CCOCC2)[C@@H]1O | i
O=C(CCc1conc1-c1ccc(F)cc1)NCC1CCCO1 (stereo unspecified) | i
C=CCNC(=O)c1ccc2c(=O)[nH]c3c(C(=O)NC(C)C)sc(=S)n3c2c1 | i
CC(C)N1C(=O)C2(CCCC2)C1C(=O)N1CCc2ccccc21 (stereo unspecified) | i

Two entries picked at random from those above, as already listed:
SMILES | Methyltransferases
O=C(c1ccc(-c2cccc(O)c2)nc1)N1CCCN(c2ncccn2)CC1 | i
Cc1ccc(CNC(=O)CSc2nnc3n(Cc4ccccc4)c(=O)c4ccccc4n23)cc1 | i

More results:
SMILES | Methyltransferases
Cc1cccc(CSc2nnc3n(C)c(=O)c4ccc(C(=O)NC5CCCC5)cc4n23)c1 | i
Cn1cncc1C(N)(c1ccc(Cl)cc1)c1ccc2c(c1)c(-c1cccc(Cl)c1)cc(=O)n2C (stereo unspecified) | +
CNC(=O)c1cc(C)nc2onc(C3CCN(C(=O)c4ccccc4Cl)C3)c12 (stereo unspecified) | i
CCC(C)N1CCN(C(=O)Cn2c(=O)oc3cc(S(=O)(=O)NCc4ccccc4)ccc32)CC1 (stereo unspecified) | i
CCCn1c(=O)c2ccccc2n2c(=O)n(CC(=O)Nc3ccc(OC)cc3)nc12 | i
CC(C)S(=O)(=O)Nc1ccc(F)c(C(=O)c2c[nH]c3ncc(-c4cccnc4)cc23)c1F | ?
CC(C)C(=O)N1CCC2(CC1)OC(=O)N(Cc1ccccc1C#N)C2(C)c1ccccc1 (stereo unspecified) | i
CC1(C(=O)NC2CCCC2)Cn2c(cc3sccc32)C(=O)N1Cc1cccc(Cl)c1 (stereo unspecified) | i
COc1ccc(N(C)C(=O)c2c(C)oc3c2CN(Cc2ccc(F)cc2)CC3)cc1 | i
CC1=C(CCC(C)CC(=O)O)[C@@]2(C)CCCC(C)(C)C2CC1=O (stereo partly specified) | i
Cc1cc(C)cc(NS(=O)(=O)c2ccc3[nH]c4c(c3c2)CCCC4)c1 | i
CCCn1c(=O)c2ccc(C(=O)NC(C)CC)cc2n2c(=O)n(CC(=O)c3ccc(C)cc3)nc12 (stereo unspecified) | i
CCCN1C(=O)c2c(C(=O)NCc3ccc(OC)cc3)ncn2CC1(C)C(=O)NCCC(C)C (stereo unspecified) | i
Cc1ccc([C@H]2Nc3ccc(S(=O)(=O)Nc4ccc(C)c(Cl)c4)cc3[C@H]3C=CC[C@H]32)cc1 | i
COc1cccc(CNC(=O)C2(N3C[C@@H](C)O[C@@H](C)C3)Cc3ccccc3C2)c1 | i
Cc1ccc(NC(=O)N2CCC(CCNC(=O)CC3CCCC3)CC2)cc1F | i
O=C(CCC1CCN(Cc2ccccc2)CC1)c1ccc2c(c1)NCCCC2 | ?
COCCN1C(=O)c2ccccc2C(C(=O)Nc2cc(C)ccn2)C12CCCC2 (stereo unspecified) | i
CC1(c2cccnc2)N(CC2CC2)C(=O)OC12CCN(C(=O)c1cccc(O)c1)CC2 (stereo unspecified) | i
CCC(C)NC(=O)c1ccc2c(=O)n(CC(C)C)c3nn(CC(=O)c4ccccc4)c(=O)n3c2c1 (stereo unspecified) | i
COc1cccc(N2C(=O)c3cc(C(C)(C)C)nn3CC2(C)C(=O)NC2CCCCCC2)c1 (stereo unspecified) | i
COc1cc(NC(=O)c2cc3n(n2)CC(C)(C(=O)NC2CCCCC2)N(C)C3=O)cc(OC)c1 (stereo unspecified) | i
O=C1NC(=NC2CCCCC2)C2(CCN(Cc3ccccc3)CC2)N1c1cc(F)cc(F)c1 | i
CN(C)C(=O)c1nc(-c2cccc(C(F)(F)F)c2)c2cnccn12 | i
O=C(O)CCNS(=O)(=O)c1ccc2[nH]c(=O)[nH]c2c1 | i
CSCCC(=O)N[C@H]1CN(c2cc(C3CC3)ncn2)C[C@@H]1C1CC1 | i
CCOCCCNC(=O)N1Cc2c(sc3c2CCCC3)-n2cccc2C1c1ccc(OC)cc1 (stereo unspecified) | i
CCCn1c(=O)c2ccc(C(=O)NCC(C)C)cc2n2c(=O)n(Cc3cc(C)ccc3C)nc12 | i
Cc1nc(N(C)C)ncc1C(=O)N1CCN(c2ccccc2C#N)CC1 | i
O=C(Cn1nc2nc(Nc3ccc(F)cc3)ccn2c1=O)Nc1ccccc1 | i

Additional records.
SMILES	Methyltransferases
O=C(Nc1ccc(Cl)cc1)N1Cc2c(sc3c2CCCC3)-n2cccc2C1c1ccccc1 (stereo unspecified)	i
Cn1nccc1C(=O)N1CC(C(=O)Nc2ccccn2)C2(CCOCC2)C1 (stereo unspecified)	i
COC(=O)[C@H]1CCCN1C(=O)[C@@H]1[C@@H](NC(=O)Nc2ccc(F)cc2F)CCN1C(=O)c1cccn1C	i
Cn1c(Cn2ccnc2)nnc1C1CC(NC(=O)c2ccc(CO)o2)C1 (stereo unspecified)	i
COc1ccc(CNc2nc3c(-c4cccc(F)c4)nnn3c3ccccc23)cc1	i
Cc1cnc(-c2cccnc2)n1C1CCCN(CC2CCCCC2)C1 (stereo unspecified)	i
O=C(CNC(=O)c1ccccc1)NCc1nnc2ccc(-c3ccccc3)nn12	i
Cc1ccc(NC(=O)N2Cc3c(sc4c3CCCC4)-n3cccc3C2c2ccccc2)cc1F (stereo unspecified)	i
Cc1ccc(CNC(=O)Cn2ccc3cc(S(=O)(=O)N4CCCC4)ccc32)o1	i
COc1cccc(Nc2ncc3c(n2)C(C)(C(=O)NC2CCOCC2)CC3)c1 (stereo unspecified)	i
CC(=O)NC[C@H]1CCN(Cc2ccc(Cl)cc2F)C[C@H]1N(C)C	i
CN(Cc1ccc(F)cc1)C(=O)c1cccc(Cl)c1	i
CCOc1ccc(NC(=O)N2Cc3c(sc4c3CCCC4)-n3cccc3C2c2cc(F)cc(F)c2)cc1 (stereo unspecified)	i
COc1ccccc1CNC(=O)C1(C)Cn2c(cc3ccccc32)C(=O)N1C1CC1 (stereo unspecified)	i
CCC(C)NC(=O)Cn1nc2n(C(C)C)c(=O)c3ccc(C(=O)NCC(C)C)cc3n2c1=O (stereo unspecified)	i
CC(=O)O[C@]1(C(C)=O)CC[C@H]2[C@@H]3C[C@H](C)C4=CC(=O)C=C[C@]4(C)[C@@]3(F)[C@@H](O)C[C@@]21C	i
CC1(CO)CC(O)[C@]2(C(=O)O)CCC34CC3(C=CC3[C@]5(C)C(CC[C@]34C)C(C)(CO)[C@@H](O)[C@H](O)[C@@H]5O)C2C1 (stereo partly specified)	+
CCCN1C(=O)c2c(C(=O)Nc3cc(Cl)ccc3OC)ncn2CC1(C)C(=O)NC1CCCC1 (stereo unspecified)	i
Cc1nnc2n1CCC(NS(=O)(=O)c1ccccc1F)CC2 (stereo unspecified)	i
C=C(c1ccc(C(=O)O)cc1)c1cc2c(cc1C)C(C)(C)CCC2(C)C	?
Cc1ccc(Cn2c(=O)c3ccc(C(=O)NC4CCCC4)cc3n3c(=O)n(CC(=O)NC(C)C)nc23)cc1	i
CCCS(=O)(=O)N1CC(Oc2ccccc2-c2nc(C3CC3)no2)C1	i
CN(C)CCCCC(=O)Nc1ccc(NC(=S)NC(=O)c2ccc(C(C)(C)C)cc2)cc1	i
O=S(=O)(NCc1cccnc1Oc1ccc(F)cc1F)c1cccnc1	i
C/C(=C/CO)CC[C@H]1[C@]2(C)C[C@H](O)CC(C)(C)[C@H]2CC[C@]1(C)O	i
COc1cc(O)c(C(=O)CCc2ccc(O)cc2)c(O[C@@H]2O[C@H](CO)[C@@H](O)[C@H](O)[C@H]2O)c1	+
Cc1cccc(-c2nnn3c2nc(N2CCCC2)c2ccccc23)c1	i
CC(C)CC(=O)n1cc(C(N)=O)c(=O)cc1C(O)c1ccccc1 (stereo unspecified)	i
CNC(=O)c1cc(C2CC2)nc2onc(C3CCCN(C(=O)c4ccccc4OC)C3)c12 (stereo unspecified)	i
CC(C)Cn1c(=O)c2ccccc2n2c(SCC(=O)Nc3ccc(Cl)cc3)nnc12	i

Of the compounds above, 4 contain an aryl thioether with sulfur outside any ring.
SMILES	Methyltransferases
Cc1ccc(CNC(=O)CSc2nnc3n(Cc4ccccc4)c(=O)c4ccccc4n23)cc1	i
Cc1ccc(C)c(C(=O)CSc2nnc3n(C)c(=O)c4ccc(C(=O)NC5CCCCC5)cc4n23)c1	i
Cc1cccc(CSc2nnc3n(C)c(=O)c4ccc(C(=O)NC5CCCC5)cc4n23)c1	i
CC(C)Cn1c(=O)c2ccccc2n2c(SCC(=O)Nc3ccc(Cl)cc3)nnc12	i

Next section.
SMILES	Methyltransferases
CCc1cc2c(cc3n2CC(C)(C(=O)NC2CCCCCC2)N(c2ccc(C)cc2C)C3=O)s1 (stereo unspecified)	i
Cc1ccccc1N1C(=O)c2cc(-c3cccs3)nn2CC1(C)C(=O)NC1CCCCCC1 (stereo unspecified)	i
COc1cc(/C=C/C(=O)O[C@@H]2C[C@](O)(C(=O)O)C[C@@H](O)[C@H]2O)ccc1O	?
O=C(NCCNC(=O)c1cccc(-c2ccsc2)c1)NC1CCCC1	i
CCCN1C(=O)c2c(NC(C)=O)c3ccccc3n2CC1(C)C(=O)NC1CCCC1 (stereo unspecified)	i
COc1cccc(CN2C(=O)c3cc4occc4n3CC2(C)C(=O)NC2CCCC(C)C2C)c1OC (stereo unspecified)	i
CC1(C(=O)NC2CCCCCC2)Cn2nc(-c3ccco3)cc2C(=O)N1c1cccc(F)c1 (stereo unspecified)	i
C[C@H]1[C@@H]2[C@@H](O)C([C@H](C)C(=O)N3CCC(Cc4ccccc4)CC3)CC[C@@]2(C)CC[C@@H]1NC(=O)c1cnccn1 (stereo partly specified)	i
Cc1ccc(-n2ccnc2-c2cc3n(n2)CCNC3)cc1N1CCCC1=O	i
CCC(C)NC(=O)c1ccc2c(=O)n(C(C)C)c3nn(CC(=O)c4ccc(C)cc4)c(=O)n3c2c1 (stereo unspecified)	i
COCCCN1C(=O)c2ccc(-c3ccco3)n2CC1(C)C(=O)NC1CCCCC1C (stereo unspecified)	i
CC(C)(C)CN[C@@H](Cn1cc(F)c(=O)[nH]c1=O)C(=O)O	i
COC(=O)[C@H]1CCCN1C(=O)[C@@H]1C[C@H](NC(=O)Nc2ccc(F)cc2F)CN1C(=O)CSC	i
C=CCNC(=O)c1cnn2c1CN(C(=O)OCc1ccccc1)CC2	i

These rows are one share of the data; count on the stated rates, not on these rows.
